UCH37 DUB inh: inhibitors of human deubiquitinating enzyme UCH37; 330,000 tested, 0.33% active; purified proteasome/UCH37, Ub-AMC cleavage fluorescence; inhibition, % (test concentration not listed);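 active means mean of two replicates above 20%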;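 further: 0% = compound-free wells with enzyme and 100% = wells lacking proteasome; stock transfer was 100 nL into about 20 µL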
Target sequence (Q9Y5K5 whole entry, looked up): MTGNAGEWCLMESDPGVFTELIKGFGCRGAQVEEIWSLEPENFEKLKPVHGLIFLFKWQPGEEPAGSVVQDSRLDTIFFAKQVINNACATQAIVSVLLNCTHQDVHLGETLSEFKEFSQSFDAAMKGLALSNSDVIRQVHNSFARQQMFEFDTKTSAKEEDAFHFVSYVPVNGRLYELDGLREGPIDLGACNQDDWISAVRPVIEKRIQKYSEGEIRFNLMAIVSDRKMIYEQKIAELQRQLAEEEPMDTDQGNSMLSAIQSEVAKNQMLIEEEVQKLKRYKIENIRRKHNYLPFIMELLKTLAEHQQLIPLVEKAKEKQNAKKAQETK
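Reagent: Ub-AMC substrate; assay system: Proteasome-associated human UCH37 deubiquitinase; controls: no-proteasome and no-compound wells; read-out: % inhibition of Ub-AMC cleavage fluorescence; timing: 30 min preincubation with enzyme, 25 min cleavage at room temperature; signal: AMC fluorescence from Ub-AMC cleavage, excitation 355 nm, emission 460 nm; buffer or medium: Tris-HCl pH 7.4 plus ovalbumin, ATP-MgCl2, DTT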
Vif A3G: HIV-1 Vif–A3G interaction blockers – biochemical, TR-FRET, GST-Vif 1-94, biotin-A3G peptide, dose response retest, primary screen (AID 1117319) | TR-FRET GST-Vif / biotin-A3G peptide binding; higher % means a stronger effect; test concentration not given here; strong numbers were not always called active | inhibition, %; hits with a dose series show IC50 in µM | 260,000 tested, 0.57% active;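 active means above the screen mean plus three standard deviations and confirmed in dose response; inconclusive means results disagree or hit not tested in dose response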;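 further: Vif residues 1-94 fused to GST binding biotinylated APOBEC3G peptide 110-148; 0% = full assay without inhibitor and 100% = GST in place of GST-Vif; retest series ran down from 100 µM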
E coli growth: E. coli growth inhibition | Escherichia coli growth, OD600, 23 h; stronger effect = lower value | 330,000 tested, 0.21% active | OD600 absorbance (test concentration not listed) | AID 1053175;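 active means OD600 absorbance below the run mean of sample wells minus 3.6 SD, in any replicate, cut at about 0.56 in these data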;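 further: stock transfer was 300 nL into about 60 µL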
HNF4A DNA FP: change in binding of human HNF4 alpha to DNA; P41235; HNF4a-FITC DNA binding, fluorescence polarization, 1 h; activity change, % at 10 µM; 360,000 tested, 0.3% active; in the data active means activity change above about 30%, passing the limit was not always enough;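 further: controls were the assay level and a saturating level of protein; the project sought stronger binding though the title names inhibitors; some compounds called inactive have numbers as strong as hits; positive values seem to mean higher polarization but the record does not say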
Target sequence (P41235 whole entry, looked up): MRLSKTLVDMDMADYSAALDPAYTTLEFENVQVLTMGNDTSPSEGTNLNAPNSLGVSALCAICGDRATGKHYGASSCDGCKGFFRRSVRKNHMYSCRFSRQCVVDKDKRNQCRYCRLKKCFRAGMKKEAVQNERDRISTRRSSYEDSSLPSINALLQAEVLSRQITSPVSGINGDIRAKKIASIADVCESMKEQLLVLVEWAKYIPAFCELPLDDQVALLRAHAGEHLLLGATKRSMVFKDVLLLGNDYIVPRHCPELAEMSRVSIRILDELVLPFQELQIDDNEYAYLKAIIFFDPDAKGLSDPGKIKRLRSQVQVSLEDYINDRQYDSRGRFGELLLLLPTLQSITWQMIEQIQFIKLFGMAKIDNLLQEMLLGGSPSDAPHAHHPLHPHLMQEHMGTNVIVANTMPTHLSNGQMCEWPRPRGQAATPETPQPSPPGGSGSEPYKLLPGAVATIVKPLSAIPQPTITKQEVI
MLL AF4-AF9 inh: inhibitors of human MLL-AF4/AF9 interaction; inhibition, % at 10 µM; AlphaScreen, biotin-AF4 peptide binding to FLAG-AF9; P42568; 350,000 tested, 0.47% active; AID 651704;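 active means every replicate reaching a set inhibition limit, whatever the replicate mean, cut at about 25% in these data; inconclusive means mean inhibition reaches that limit but some replicates miss it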;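 further: 0% = plate neutral control median and 100% = total signal loss; the record names both 10 and 1 µM as test concentration; the first replicate is given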
FGF22 binding: FGF22 (human) thermal shift binding. recombinant FGF22 thermal shift, SYPRO orange fluorescence; percent of sucrose octasulfate shift, DMSO zero. 340,000 tested, 1.5% active. calls only at 9.99 µM;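 active means melting point raised past a set limit in the mean and every replicate; inconclusive means no clear call; three in four hits are not shown here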
Target sequence (Q9HCT0 whole entry, looked up): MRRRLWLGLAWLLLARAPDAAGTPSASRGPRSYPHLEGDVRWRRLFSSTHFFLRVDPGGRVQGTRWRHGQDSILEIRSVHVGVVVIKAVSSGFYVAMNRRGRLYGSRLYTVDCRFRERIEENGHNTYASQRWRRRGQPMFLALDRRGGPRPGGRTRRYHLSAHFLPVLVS
RanGTP-Impb inh: disruptors of Ran-importin-beta complex formation – biochemical, FRET, CFP-Ran, YFP-importin-beta, homogeneous, primary screen; inhibition, % (concentration not given with the values); cell-free CFP-Ran/YFP-importin-beta FRET ratio; 300,000 tested, 1.1% active;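 active means most replicates above 15%; inconclusive means exactly half above 15%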;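 further: 0% = DMSO wells and 100% = Ran loaded with GDP instead of GTP; wells of about 40 µL received 100 nL stock; the first replicate is given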
* marks the source's active call; other numbers are inactive results; i = inactive; ? = inconclusive; · = no result given. Only part of the results is shown; the hit share may differ from the screen's.

SMILES | UCH37 DUB inh | Vif A3G | E coli growth | HNF4A DNA FP | MLL AF4-AF9 inh | FGF22 binding | RanGTP-Impb inh
O=C(NCc1cccnc1)Nc1ccc(Br)cc1 | 1.5 | · | 0.593 | -1.6 | 0.1 | i | 0.6
CCN(CC)CCCNc1nc(CN2CCOCC2)nc2sc3c(c12)CCC3 | 3.7 | ? | 0.68 | -4.8 | 2.3 | i | -0.6
O=C(CCNc1cccc(F)c1)c1cccc([N+](=O)[O-])c1 | 6.4 | 5.0% | 0.716 | 0.8 | 2.1 | · | -3.6
Nc1ccc(S(=O)(=O)Nc2ccccn2)cc1 | 4.3 | · | 0.664 | 3.2 | -1.1 | i | 0.2
COc1ccc(OC)c(S(=O)(=O)NCC2CCCO2)c1 (centres undefined) | -3.0 | 10.4% | 0.622 | 1.0 | · | · | 1.7
O=C(Nc1ccccc1C(=O)N1CCNCC1)c1ccco1 | -0.4 | ? | 0.713 | · | · | · | -1.8
O=C(CSc1nnc(-c2ccc(Br)cc2)o1)Nc1cccc(C(=O)O)c1 | -0.3 | -4.4% | 0.726 | 1.6 | -5.7 | i | -0.6
CC(=O)Nc1ccc(S(=O)(=O)N(C)CC(=O)OCC(=O)NCc2ccco2)cc1 | 0.8 | -2.3% | 0.655 | 0.0 | 4.7 | i | -4.3
Cc1noc(C)c1COc1cccc(C(=O)N2CCc3ccccc32)c1 | 2.1 | 12.2% | 0.708 | 7.7 | -0.7 | i | 0.2
COc1cc(CNC(C)C)c(Br)cc1OC1CCCC1 | 5.7 | -6.2% | 0.698 | 4.5 | 0.7 | i | -2.3
O=C1Cc2cc(S(=O)(=O)N3CCN(c4ccccc4)CC3)ccc2N1 | 2.4 | · | 0.749 | 0.7 | 7.1 | i | -3.2
FC(F)(F)c1ccccc1NC(=S)Nn1cnnc1 | 2.2 | 3.3% | 0.686 | 2.7 | -2.2 | i | ·

Retrieved by structure from above:
SMILES | UCH37 DUB inh | Vif A3G | E coli growth | HNF4A DNA FP | MLL AF4-AF9 inh | FGF22 binding | RanGTP-Impb inh
O=C(CCNc1cccc(F)c1)c1cccc([N+](=O)[O-])c1 | 6.4 | 5.0% | 0.716 | 0.8 | 2.1 | · | -3.6
FC(F)(F)c1ccccc1NC(=S)Nn1cnnc1 | 2.2 | 3.3% | 0.686 | 2.7 | -2.2 | i | ·

(next part)
SMILES | UCH37 DUB inh | Vif A3G | E coli growth | HNF4A DNA FP | MLL AF4-AF9 inh | FGF22 binding | RanGTP-Impb inh
CC1(C)Cc2c(c(-c3ccco3)nc3sc4c(NCCN5CCOCC5)ncnc4c23)CO1 | -19.7 | · | 0.723 | 3.8 | 1.1 | i | -4.6
Cc1ccc(C(=O)C(C(=O)/C=C/c2ccccc2)=C2SCCCS2)cc1 | 6.5 | -4.7% | 0.795 | -2.6 | · | · | -1.5
CNC(=O)/C(C#N)=C/c1c(F)cccc1Cl | 1.9 | ? | 0.709 | 3.0 | -1.7 | i | -2.1
O=C(NCCN1CCCCC1)c1c(O)c2ccccc2[nH]c1=O | 4.0 | ? | 0.672 | 1.4 | -3.4 | · | ?
COc1cc(Cl)c(C)cc1NC(=O)CSc1ccc(C)cc1 | 2.3 | 5.4% | 0.734 | 4.3 | 4.7 | i | -5.5
Cc1ccc(NC(=O)COC(=O)[C@@H]2CCCN2C(=O)c2cccs2)cc1S(=O)(=O)N(C)C | 1.8 | · | 0.682 | 0.4 | 0.6 | i | 0.7
CCCCCCSc1cc(-c2nc3cnccn3c2NCc2ccccc2)ccc1OC | -127.1 | · | 0.677 | 16.7 | · | · | 13.5
O=C(c1cccc(Cl)c1)N1CCC(=O)N(C(COCc2ccccc2)Cc2ccccc2)CC1 (centres undefined) | 0.5 | 8.5% | 0.684 | -2.3 | 2.3 | i | -3.5
COC(=O)c1ccc(/C=C(/NC(=O)c2ccccc2)C(=O)N2CCOCC2)cc1 | 2.3 | 1.4% | 0.705 | 1.3 | 2.5 | i | 2.0
CCOc1ccc(C(=O)Nc2ccc(S(=O)(=O)Nc3cc(C)on3)cc2)cc1 | 4.5 | · | 0.69 | 0.3 | -2.4 | i | -2.6
Cc1ccc(NC(=O)CSc2nc(=O)n3cc(C)ccc3n2)c(C)c1 | 3.9 | -1.4% | 0.642 | -1.1 | -30.2 | i | 5.0
O=c1[nH]c(SCc2ccc(F)cc2Cl)nc2ccccc12 | 4.5 | -7.8% | 0.749 | 3.4 | -4.3 | · | -6.2
Cc1ccc(NC(=O)C(=O)NCCCN2CCCC2=O)cc1 | 2.2 | -0.2% | 0.577 | 3.3 | -23.8 | i | 4.9
CCOc1ccc(N2C(=O)CC(N3CCC(O)(c4ccc(Br)cc4)CC3)C2=O)cc1 (centres undefined) | -0.2 | 2.7% | 0.719 | -3.4 | · | · | 2.1
CCc1nc(NCCO)c(C#N)c2c1CSC(C)(C)C2 | -31.8 | 9.2% | 0.661 | -8.1 | 0.5 | i | 1.7
CC1(C)CC(=O)C2=C(C1)N(c1ccc(F)cc1)C(=O)CC2c1ccsc1 (centres undefined) | 5.2 | 0.5% | 0.706 | 0.2 | 0.0 | i | -2.4
CCOC(=O)C1=C(Cc2ccc(Cl)cc2)C(=O)c2ccccc2C1=O | -59.4 | 34.7µM* | 0.702 | -0.6 | · | · | -6.1
O=c1cc(-c2ccccc2)c2c(O)cc(O)cc2o1 | -3.2 | 4.9% | 0.601 | -1.6 | -7.3 | i | -2.5
COc1ccc2c(c1)NC(C)(C)C=C2C | -33.2 | 32.2% | 0.66 | -1.5 | 17.3 | · | -5.1
C=CCNC(=O)/C(C#N)=C/c1ccc(C(=O)O)cc1 | 3.6 | -6.6% | 0.713 | 2.7 | 0.5 | i | -4.2
CCc1cc(-c2n[nH]c(=S)n2N)n(C)n1 | 0.2 | 10.7% | 0.67 | -0.9 | · | · | -5.5
C#CCNC(=O)C[C@@H]1C[C@@]2(C(=O)OCC)CCCC=C2N(CCCCCCCC)C1=O | · | · | · | -2.5 | 0.4 | i | ·
Cc1ccc(S(=O)(=O)CCC(=O)OCC(=O)NC(C)c2ccccc2)cc1 (centres undefined) | -2.0 | -10.8% | 0.663 | 2.4 | -1.9 | i | ·
CCOC(=O)/C(C#N)=N/Nc1ccc(S(=O)(=O)N2CCc3ccccc32)cc1 | · | -3.0% | · | -0.1 | · | · | 2.1
Cc1ccc(NC(=O)COC(=O)COc2ccc3ccc(=O)oc3c2)cc1[N+](=O)[O-] | -5.9 | -5.9% | 0.67 | 2.1 | 0.5 | i | ·
O=C(OC(c1ccccc1)c1nccc2ccccc12)c1ccccc1 (centres undefined) | 6.6 | -7.1% | 0.725 | 0.7 | -1.3 | i | ·
COC(=O)c1ccc2nc3c(cc2c1)[C@@H]1CCN2C(=O)CCC[C@H](C3)[C@H]12 | · | · | · | -0.4 | -5.4 | i | ·
CCC1SC(CC)C(=O)N(CC(=O)NCCc2ccccc2)C1=O (centres undefined) | -3.5 | 3.0% | 0.708 | -1.6 | -0.9 | i | 0.7
Cc1onc(-c2c(Cl)cccc2Cl)c1C(=O)NC1C(=O)N2C1SC(C)(C)C2C(=O)O (centres undefined) | · | 10.2% | 0.633 | -2.5 | 0.8 | i | 7.0
CCS(=O)(=O)c1ccc2oc(=O)c(/C=C(\O)c3ccc(Cl)cc3)nc2c1 | 1.8 | 10.6% | 0.726 | 2.7 | -1.3 | i | 0.6
CCOC(=O)C1=C(O)C(=O)N(CCCn2ccnc2)C1c1ccc(OC)cc1 (centres undefined) | -0.7 | · | 0.7 | · | · | · | -2.5
COCCn1ccc(O)c(Cc2ccccc2)c1=O | 3.4 | 1.9% | 0.637 | -1.9 | · | · | 0.0
COc1ccc(NC(=O)Cn2cc(C#N)c3ccccc32)cc1 | 1.3 | -0.4% | 0.723 | -0.1 | 0.8 | i | 3.4
Cc1cc(C(=O)N2CCN(Cc3ccc4c(c3)OCO4)CC2)on1 | 8.8 | 21.9% | 0.774 | -3.2 | 5.6 | i | 2.0
COc1ccc(NC(=O)/C=C/c2ccccc2[N+](=O)[O-])c(OC)c1 | 2.4 | · | 0.636 | -1.4 | 3.4 | i | 5.0
CC1=C(C(=O)N(C)C)CC(CC(=O)NCc2cccc3ccccc23)C(=O)N1CCCN1CCCC1=O (centres undefined) | · | -0.3% | · | -3.9 | -0.8 | i | ·
CCCCc1ccc(C(=O)NC(C(=O)O)C(C)C)cc1 (centres undefined) | 2.7 | -0.4% | 0.711 | 2.3 | · | · | -3.4
CC(Sc1ncnc2sccc12)C(=O)Nc1ccc(C(N)=O)cc1 (centres undefined) | 2.6 | -6.9% | 0.653 | 0.7 | -0.7 | i | 4.4
CCOCCCn1c(SCC(=O)Nc2ccc(NC(C)=O)cc2)nc2ccccc2c1=O | 2.2 | · | 0.748 | 0.9 | -3.9 | i | 2.2
Cc1ccc(C)c(C(C)NC(=S)NC2CCCCC2)c1 (centres undefined) | 1.6 | · | 0.685 | 2.4 | 0.7 | i | 1.5
CCOC(=O)c1ccccc1NS(=O)(=O)c1ccccc1F | 0.8 | 2.0% | 0.669 | 0.1 | · | · | -3.0
O=C(CCCCCNC(=O)N1CCn2c1nc1ccccc12)N[C@@H](C(=O)O)c1ccccc1 | -0.1 | · | 0.722 | -0.3 | -1.0 | i | -0.6
O=C(Nc1cccc(-c2nn[nH]n2)c1)c1csc2c1CCCC2 | 2.1 | · | 0.639 | 5.7 | · | · | 1.2
O=C(O)c1cccc(CSc2nnc(Cc3ccccc3)o2)c1 | 3.2 | ? | 0.708 | 3.5 | · | · | -1.7
C=CCOc1ccc2ccccc2c1CNn1c(C)n[nH]c1=S | 3.9 | · | 0.694 | -2.0 | -28.2 | i | 3.1
COc1ccc(OC)c(-n2nnnc2SCC(=O)O)c1 | 3.7 | 0.3% | 0.712 | 4.3 | · | · | -0.9
Cc1ccccc1C(=O)c1cccn1CC(=O)NCc1ccccc1 | 1.3 | 0.1% | 0.663 | 0.0 | -0.7 | i | ?
CC#CC(=O)N1CCC(CCc2ccccc2)(C(=O)OCC)CC1 | 3.6 | -6.5% | 0.716 | -2.5 | 1.2 | i | 5.7
COC(=O)c1c(C)cc(OC(C)=O)c(C)c1OC(C)=O | 1.3 | 0.0% | 0.747 | 2.0 | · | · | -4.4
O=C(COc1ccc(N2C(=O)c3ccccc3C2=O)cc1)c1ccccc1 | 4.7 | -10.1% | 0.733 | 3.2 | -1.9 | · | 1.3
NS(=O)(=O)c1cccc(NC(=O)c2cccs2)c1 | -0.1 | -10.7% | 0.715 | 0.3 | 2.8 | i | ?
COc1ccc(NC(=O)COC(=O)Cn2nnc3ccccc32)cc1 | 0.0 | 3.7% | 0.636 | 0.4 | 0.1 | i | -2.5
O=C(Nc1cc(Cl)ccc1Cl)c1noc2c1CCCC2 | 4.8 | · | 0.725 | 4.3 | -0.2 | i | 4.3
O=C(CC1CCCC1)NCCc1cn2ccccc2n1 | 2.5 | 5.4% | 0.695 | -1.2 | -1.4 | i | -0.9
COc1ccc(CNC(=O)CC(C)c2ccccc2)cc1 (centres undefined) | 4.0 | -8.0% | 0.679 | -0.5 | -4.4 | i | -0.3
Cc1ccc(S(=O)(=O)NCCC(=O)O)cc1 | 0.0 | 1.5% | · | -3.5 | · | · | 6.6
Cc1cc(C)n(-c2nc(SCCN(C)C)c3c4c(sc3n2)COC(C)(C)C4)n1 | -6.9 | 5.1% | 0.68 | 6.2 | 10.9 | i | 1.2
O=C(COc1ncnc2c(Cl)cc(Cl)cc12)NCCC1=CCCCC1 | 2.2 | -1.2% | 0.715 | 0.4 | · | · | 0.9
Cc1cc(C)cc(N(CC(=O)NC(C)(C)C)C(=O)CNC(=O)c2cccs2)c1 | 5.8 | 4.9% | 0.729 | -0.2 | 0.4 | i | -0.1

Bioassay records (PubChem BioAssay)
